# Screens as filed in PubChem.
# Sa ugtP lethal = kills S. aureus RN4220 lacking UgtP; S. aureus RN4220 ugtP deletion, OD600 growth, 16 h; some inactives read as strong as hits; growth inhibition, % (test concentration not listed); actives 0.54% (n = 330,000);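 active = z-score under -3 and OD600 up to 0.15 on both plates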;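 note: plate controls were untreated wells for no effect and antibiotic for full effect; wells of about 80 µL received 100 nL stock; the first replicate is given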
# PrP UTR inh = suppresses PrP 5' UTR mRNA reporter expression; cell-based PrP 5' UTR mRNA reporter, plate reader; inhibition, % (no concentration beside the values); actives 0.35% (n = 340,000); AID 488862;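 active = every replicate at 50% or more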;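 note: 0 = median of the neutral control wells; tested in H4 reporter cells; numbers are from one replicate; inactives centre near -14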
# BJeLR viability = kills HRASV12-expressing BJeLR cells. BJeLR (HRASV12) viability, CellTiter-Glo ATP luminescence, 48 h; reference of the scale not given here. inhibition, % (test concentration not listed). actives 0.17% (n = 300,000);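 active = replicate mean above 50%; inconclusive = above 50% but judged a plate artefact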;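 note: 50 nL library stock added to about 25 µL; numbers are from one replicate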
# Bead autofluor = flagged as autofluorescent in microsphere protease counterscreen. compound autofluorescence counterscreen, microsphere flow cytometry; active compounds read high. fluorescence intensity (concentration not given with the values). actives 3.1% (n = 360,000). AID 624483;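 active = at least 3 SD above the mean of all compounds, about 16000 in these data; inconclusive = too few beads counted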;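 note: 100 nL of 1 mM stock went into each well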
# RN4220 kill = S. aureus RN4220 growth inhibition; OD600, 16 h; inhibition, % (test concentration not listed); actives 0.33% (n = 330,000);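 active = z-score of -3 or lower and OD600 up to 0.18 on both plates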;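 note: plate controls were untreated cells for no effect and reference antibiotic for full effect; stock transfer was 100 nL into about 80 µL; one replicate is shown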
# Mtb hypoxia rep = reduces hypoxia-regulated biosensor signal in M. tuberculosis; M. tuberculosis hypoxia-regulated fluorescent reporter, fluorescence; fluorescence inhibition, % (test concentration not listed); actives 0.1% (n = 300,000); AID 1159583;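 active = 35 to 45% if threefold the growth effect, above 45% if 1.5-fold the growth effect; inactive = the rest, general growth blockers included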;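 note: wells of about 50 µL received 100 nL stock; 0% = vehicle wells and 100% = reference inhibitor wells; whole bacteria with a GFP reporter of the hypoxia response; strong numbers were not always called active; many hits fall short of the cut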
# Mtb hypoxia rep growth = recorded beside Mtb hypoxia rep, whose call it bears; growth inhibition, %; measured here: M. tuberculosis growth (absorbance);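 0% = vehicle and 100% = reference antibiotic; read after six days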
# An asterisk follows results filed as active; ? = inconclusive; nt = not tested or not shown.
Structure	Mtb hypoxia rep growth	BJeLR viability	Sa ugtP lethal	PrP UTR inh	Mtb hypoxia rep	Bead autofluor	RN4220 kill
Cc1nc2c(nnn2Cc2ccccc2Cl)c(=O)[nH]1	11	-4	2	-17	0	3905	1.1
O=C(CN1CCCCC1)NCCNC(=O)CN1CCCCC1	5	-5	-8	-18	-1	10079	5.5
Cc1ccc(C)c(NC(=S)NNC(=S)Nc2ccc(C(C)C)cc2)c1	11	3	-6	-16	-2	3295	2.9
COc1ccc(C2=CC(=O)CC(c3ccc(F)cc3)C2)cc1 (stereo not given)	6	-3	-4	-12	10	3753	-6.9
Cc1ccc(CC(CC(=O)O)C(=O)Nc2ccc(Cl)cc2)cc1 (stereo not given)	2	-1	5	-26	5	3602	5.9
CCOC(=O)N1CCC(NC(=O)c2cc(S(=O)(=O)N3CCCC3)cn2C)CC1	4	-1	-3	-6	2	3050	-1.0
COc1ccc(C)cc1-n1nnnc1SCC(=O)N1CCC(C(=O)Nc2nccs2)CC1	4	-1	-7	-4	-5	23303*	0.5
CNC(=O)c1ccsc1NC(=O)c1ccccc1	11	-4	4	-9	1	4309	3.8
C=CCN(C(=O)C1CC(=O)N(C2CCCC2)C1)c1nc(-c2ccc(S(C)(=O)=O)cc2)cs1 (stereo not given)	10	nt	4	-52	7	3746	3.5
COc1cc(NC(=O)c2ccc(COCC(F)(F)F)cc2)cc(OC)c1OC	nt	-7	2	-7	nt	3103	5.3

# Additional structures
Structure	Mtb hypoxia rep growth	BJeLR viability	Sa ugtP lethal	PrP UTR inh	Mtb hypoxia rep	Bead autofluor	RN4220 kill
CC(C)(C)NC(=O)COC(=O)Cc1ccc(Cl)cc1	10	-4	10	-18	10	2930	3.6
CC(C)c1ccc(OCC(=O)NNC(=S)NC(=O)C2CC2)cc1	nt	2	nt	-2	nt	6046	nt
O=C(Nc1ccccc1)c1cccc(S(=O)(=O)Oc2ccc([N+](=O)[O-])cc2)c1	5	-1	-16	-14	2	2217	-3.8
Cc1cccc(-c2n[nH]c(S(C)(=O)=O)c2C#N)c1	10	-9	-1	-16	0	5880	3.3
O=C(N/N=C/c1c[nH]c2ccccc12)c1ccccc1O	nt	13	nt	-18	nt	3560	nt
CC(=O)c1sc(NC(=O)c2cc(S(=O)(=O)N3CCOCC3)ccc2F)nc1C	7	nt	-4	-31	6	7713	-1.1
Cc1ccc(C)c(NC(=O)c2c(Cl)nc3ccccn23)c1	1	-9	-2	-13	5	2581	15
COc1ccccc1NC(=O)c1sc2nc(Cc3ccccc3)cc(C(F)(F)F)c2c1N	4	-2	70	-19	-1	7395	-2.6
CCCc1n(CC)c2ccccc2[n+]1CC(O)COC1CCCCC1 (stereo not given)	6	0	7	-21	10	4767	-0.1
C=CC1=C(C(=O)O)N2C(=O)C(NC(=O)Cc3ccccc3)C2SC1 (stereo not given)	nt	5	101*	-1	nt	nt	101*

# The listing continues:
Structure	Mtb hypoxia rep growth	BJeLR viability	Sa ugtP lethal	PrP UTR inh	Mtb hypoxia rep	Bead autofluor	RN4220 kill
CN1CCN(CCCNC(=O)c2ccc(Cn3c(=S)[nH]c4ccc(Br)cc4c3=O)cc2)CC1	21	-4	-1	-10	7	3917	2.3
COC(=O)c1ccc(C(c2c(N)n(Cc3ccccc3)c(=O)n(C)c2=O)N2CCOCC2)cc1 (stereo not given)	7	-6	-4	-4	1	3665	-0.5
CCC(O)(CCN1CCCCC1)c1ccccc1 (stereo not given)	2	-2	2	-17	3	3344	-14
CCOc1ccc(C(C)=O)cc1CN1C(=O)NC(C)(C2CC2)C1=O (stereo not given)	4	9	3	-10	-5	4300	-5.3
C/C=C(\C)C(=O)N[C@@H](c1ccccc1)[C@@H](O)C(=O)O[C@H]1C[C@@]2(O)[C@@H](OC(=O)c3ccccc3)C3[C@](C)(C(=O)[C@H](OC(C)=O)C(=C1C)C2(C)C)[C@H](O)C[C@H]1OC[C@@]31OC(C)=O (stereo not given in full)	nt	34	1	46	nt	4997	-0.2
CCC(Sc1ccc(Cl)cc1)C(=O)Nc1nnc(-c2cccc([N+](=O)[O-])c2)s1 (stereo not given)	3	-2	-13	0	2	4330	-19
CCOC(=O)Nc1cc(OC)c(OC)cc1Cc1nccc2cc(OC)c(OC)cc12	5	-12	-8	-49	-1	7846	-1.0
O=C(c1ccccc1-c1nc(-c2ccccc2)no1)N1CCOCC1	-1	-3	7	-16	3	18009*	0.6
Cc1nc(N2CCOCC2)c2c(C)c(C(=O)Nc3ccc(F)cc3F)sc2n1	0	20	4	6	-2	4995	2.6
COc1ccc(C(=O)CN2C(=O)NC3(CCc4ccccc43)C2=O)cc1 (stereo not given)	12	-8	5	-23	5	5818	0.9

# Next structures follow.
Structure	Mtb hypoxia rep growth	BJeLR viability	Sa ugtP lethal	PrP UTR inh	Mtb hypoxia rep	Bead autofluor	RN4220 kill
CCOC(=O)C=c1sc(=Cc2sccc2C)c(=O)n1CC(=O)NCc1ccc(C)cc1	0	nt	0	nt	-1	nt	6.2
CC(C)(C(=O)c1ccccc1)/[N+]([O-])=C/c1ccccc1	6	-8	3	-4	2	23931*	0.4
C[C@]12CC[C@@H](O)C[C@@H]1CC[C@@H]1[C@@H]2CC[C@]2(C)[C@@H](O)CC[C@@H]12	nt	2	nt	9	nt	4528	nt
N#Cc1cnc(NN)nc1	5	-7	0	-26	15	4485	2.1
NC(=O)CC(NC(=O)c1ccccc1)c1ccc(N2CCC(Br)CC2)c([N+](=O)[O-])c1 (stereo not given)	6	4	8	4	13	3834	1.2
CC1CCC(NC(=O)C(NS(=O)(=O)c2cccc3nsnc23)C(C)C)CC1 (stereo not given)	-5	-7	6	-22	4	6104	3.8
CCN(C1CCCCC1)S(=O)(=O)c1c(C)n(C)c(=O)n(C)c1=O	6	-2	5	-1	12	nt	5.8
COc1cc(C)ccc1OCCCCN1CC(C)OC(C)C1 (stereo not given)	-7	-1	-7	-8	2	4198	-4.1
COc1ccc(C(OC(=O)c2ccco2)C(=O)NCc2ccco2)cc1 (stereo not given)	9	1	11	-126	18	4553	7.0
CCCn1c(N)c(N(CCOC)C(=O)c2cc(-c3ccco3)nc3ccccc23)c(=O)[nH]c1=O	-2	14	13	-17	8	5359	4.8

# Single records, from the list above.
# Results for COc1ccc(C(OC(=O)c2ccco2)C(=O)NCc2ccco2)cc1 (stereo not given) : Mtb hypoxia rep growth = 9; BJeLR viability = 1; Sa ugtP lethal = 11; PrP UTR inh = -126; Mtb hypoxia rep = 18; Bead autofluor = 4553; RN4220 kill = 7.0
# Results for CC1CCC(NC(=O)C(NS(=O)(=O)c2cccc3nsnc23)C(C)C)CC1 (stereo not given) : Mtb hypoxia rep growth = -5; BJeLR viability = -7; Sa ugtP lethal = 6; PrP UTR inh = -22; Mtb hypoxia rep = 4; Bead autofluor = 6104; RN4220 kill = 3.8

# Next results.
Structure	Mtb hypoxia rep growth	BJeLR viability	Sa ugtP lethal	PrP UTR inh	Mtb hypoxia rep	Bead autofluor	RN4220 kill
Oc1cccc(/C=N/Nc2ccc(Cl)nn2)c1	nt	-2	nt	-34	nt	3645	nt
Cc1ccc(NC(=O)CN(CCc2ccccc2)S(C)(=O)=O)cc1	8	5	7	-3	1	3928	-3.5
Cc1cc(Nc2ccccc2)cc(=O)n1C	0	-6	-2	-10	9	3935	4.0
COc1ccc(CNCC(C)NCc2ccc(OC)c(OC)c2)cc1OC (stereo not given)	7	-1	4	-14	9	3208	1.5
CCN(CC)c1ccc(C(=O)n2cnc3ccccc32)cc1	nt	-2	nt	-50	nt	2357	nt
Cc1cccc(-c2noc(CNC(=O)Nc3ccc(F)cc3)n2)c1	7	1	9	-11	9	2105	-14
NC(=O)NC(=O)C[n+]1cccc(/C=N/O)c1	nt	-4	nt	-17	nt	2641	nt
COc1ccc(CN2C(=O)c3ccccc3C2C(=O)NCc2cccnc2)c(OC)c1 (stereo not given)	4	2	7	-7	-3	7942	0.4
O=S(=O)(NCc1nc(-c2ccccc2)no1)c1ccc(F)cc1	2	7	0	-25	-4	5964	2.8
CCOC(=O)C1CCN(C(=O)C2CCCN(S(=O)(=O)c3ccc(OCC)c(Cl)c3)C2)CC1 (stereo not given)	4	0	-3	-5	-12	?	0.4

# Additional structures.
Structure	Mtb hypoxia rep growth	BJeLR viability	Sa ugtP lethal	PrP UTR inh	Mtb hypoxia rep	Bead autofluor	RN4220 kill
S=C1NCN(Cc2ccco2)CN1CCc1ccccc1	-1	-8	5	-3	-5	3961	3.3
Cc1ccccc1C(=O)NC(=S)NC1CCSC1=O (stereo not given)	0	1	4	-14	5	2535	-0.2
Cc1ccc2nc3c(nc2c1C)C(O)=C3O	13	-17	11	13	12	nt	5.6
COc1ccc(CCNC(=O)C2CCN(S(=O)(=O)N3CCC4(CC3)OCCO4)CC2)cc1OC	4	-5	15	-29	11	2580	3.8
Cc1cc(O)c2c(c1)C(O)(C1OC(CO)C(O)C(O)C1O)c1cccc(O)c1C2=O (stereo not given)	8	-2	-11	-21	10	3648	23
Cc1ccccc1C(=O)NNC(=S)NC(=O)c1cccs1	3	12	21	-16	-3	nt	49
CCCC1O[C@@H]2C[C@H]3[C@@H]4CCC5=CC(=O)C=C[C@]5(C)[C@H]4[C@@H](O)C[C@]3(C)[C@]2(C(=O)CO)O1 (stereo not given in full)	nt	-4	nt	0	nt	4546	nt
Cc1nc2ccccc2c(N)c1C(=O)/C=C/c1ccccc1	3	2	3	-18	8	4034	4.4
CCOc1ccc(N(CC(=O)Nc2ccc(F)c(F)c2)S(=O)(=O)c2c(C)noc2C)cc1	nt	7	-11	-18	nt	6226	4.1
Cc1cccc2sc(NC(=O)CCNC(=O)c3ccco3)nc12	11	nt	-2	-10	-1	5650	-0.2

# The results go on:
Structure	Mtb hypoxia rep growth	BJeLR viability	Sa ugtP lethal	PrP UTR inh	Mtb hypoxia rep	Bead autofluor	RN4220 kill
CCN(CC)c1ccc(/C=N/N2CCN(Cc3ccccc3Cl)CC2)c(O)c1	nt	2	nt	-30	nt	4346	nt
COCCN1C(=O)c2ccccc2C(C(=O)N2CCN(c3ccccc3)CC2)C1c1ccc(F)cc1 (stereo not given)	11	-4	-2	-13	9	6731	0.5
CN(C)CCN(Cc1cccs1)S(=O)(=O)c1csc(C(N)=O)c1	7	6	18	0	11	4265	5.8
O=C(CSc1nnc(-c2ccco2)o1)NC1CCCCC1	3	-6	8	-4	8	4480	3.3
COc1ccc(-c2nc(C#N)c(NCc3ccccc3Cl)o2)cc1	5	-6	-1	-30	3	20055*	-0.2
COCCn1c(NC(=S)NC(=O)C23CC4CC(CC(C4)C2)C3)cc(=O)[nH]c1=O	14	-6	6	-19	7	3939	8.1
Cn1c(=O)c2cc(S(=O)(=O)NC(Cc3ccccc3)C(=O)NCC3CCCO3)ccc2n(C)c1=O (stereo not given)	4	0	3	-41	3	4377	1.9
CC1CCCN(S(=O)(=O)c2ccc(C(=O)Nc3nnc(C4CC4)o3)cc2)C1 (stereo not given)	4	7	51	-20	-5	6035	69
COc1ccc(CC(=O)Nc2cc(=O)n(C)c(=O)n2C)cc1OC	-2	-4	3	-7	8	3398	7.5
CC1(C)CC(=O)C(C=NCC2CCN(C(=O)Cc3ccccc3)CC2)=C(O)C1	7	-5	3	-3	2	4285	4.1

# Remaining list, next part.
Structure	Mtb hypoxia rep growth	BJeLR viability	Sa ugtP lethal	PrP UTR inh	Mtb hypoxia rep	Bead autofluor	RN4220 kill
CN1CCN(c2ccc(Cl)cc2NC(=O)c2nn(-c3ccccc3)c(=O)c3ccccc23)CC1	13	0	-11	-6	-8	4025	0.6
COc1cc(/C=C/C(=O)N2CCN(CC(O)COc3ccccc3)CC2)cc(OC)c1OC (stereo not given)	nt	-3	nt	-13	nt	3141	nt
N/C(=N\OC(=O)c1ccc(Cl)c(Cl)c1)c1cccc(CSc2ccccn2)c1	9	-10	3	-21	-5	4446	3.1
CCCC(=O)N1CC(=O)Nc2ccc(Br)cc2C1c1ccc(F)cc1 (stereo not given)	7	-11	5	2	3	3916	1.2
Cc1ccc(S(=O)(=O)N2CCc3ccccc3C2CC(=O)O)cc1 (stereo not given)	7	0	6	-19	-6	4586	-0.9
N#C/C(=C\c1ccc(C(=O)O)cc1)c1nc2sc3c(c2c(=O)[nH]1)CCCC3	-5	nt	0	-25	-4	4320	3.5
CCCCCCn1cc(C(=O)OCC)c(=O)c2cc(F)c(F)cc21	-1	-1	1	5	-4	6087	3.8
N#CC(CC(=O)c1ccc(F)cc1)c1ccc2c(c1)OCO2 (stereo not given)	4	-10	10	-28	9	3666	7.5
Cc1cccc(CN2C(=O)c3ccccc3Sc3ccc(C(=O)O)cc32)c1	-4	-11	13	-23	6	4018	18
CCCOC(=O)c1cccc(NC(=O)C(C)(C)C)c1	12	-8	-4	-18	7	3298	-1.3
